Vaccinia Venus = inhibitors of vaccinia virus (Venus reporter). 330,000 compounds, 0.46% hits. Potency, µM (doses to about 36.5 µM), inactives show at the top dose activity change, negative = inhibition, actives largely listed as inhibitors. Vaccinia virus Venus reporter expression, fluorescence. AID 720580; active means well fitted inhibition curve with a large enough effect; inconclusive means small, poorly fitted or top-dose-only effect; inactive means no such curve, though single readings can be large or run the other way; tested in A549 cells; note: nearly all actives have a fitted effect of over 30% in size; inactives centre near -10
Vaccinia mCherry = vaccinia inhibition (mCherry reporter). 310,000 compounds, 0.63% hits. AID 720579. Vaccinia virus mCherry reporter infection, fluorescence; about a quarter of the inactives have no number. Potency, µM (titrated, usually from 36.5 µM), inactives show at the top dose activity change, negative = inhibition, actives largely listed as inhibitors; active = well fitted inhibition curve with a large enough effect; inconclusive = small, poorly fitted or top-dose-only effect; inactive = no such curve, though single readings can be large or run the other way; tested in A549 cells; note: nearly all actives have a fitted effect of over 35% in size; inactives centre near -10
Starred values were filed as active, the others as inactive; i = inactive; u = inconclusive; x = no result given; & = joins results of further samples; [ ] = remark or other dose. % is set by controls: 0 for no effect and ±100 for the full control effect; potency is the fitted concentration of half-maximal effect.

Values run as follows: Vaccinia Venus	Vaccinia mCherry
COc1ccc(NC(=O)C23CC4CC(C2)CC(c2ccc(C)cc2)(C4)C3)cc1
  -14%	-21%
FC(F)(F)c1cccc(Cc2noc(CN3CCCCC3c3ccccn3)n2)c1 (centres undefined)
  -5%	-8%
CC(=O)c1ccc(S(=O)(=O)NC2CC(=O)N(c3ccc(Cl)cc3)C2)cc1 (centres undefined)
  -21%	-2%
CC(Sc1nncn1C)C(=O)NCCC1=CCCCC1 (centres undefined)
  8%	-14%
O=C(O)c1nn(CC(=O)N2CCN(c3ncc(C(F)(F)F)cc3Cl)CC2)c(=O)c2ccccc12
  -9%	u
CCNC(=S)N(CCc1c(C)[nH]c2ccc(C)cc12)Cc1cccnc1
  -16%	-20%
COC(=O)c1c(C)nsc1NC(=O)Oc1ccccc1
  -11%	i
COc1ccc(NC(=O)CCc2nc(-c3ccc(C)cc3)no2)cc1Cl
  -10%	x
Cc1ccc2[nH]c(-c3ccccc3)c(CN3CCOCC3)c(=O)c2c1
  -10%	-18%
Cn1c(N)c(C(=O)COC(=O)C2(c3cccc(F)c3)CCCC2)c(=O)n(C)c1=O
  -12%	i
O=C(NCCN1CCOCC1)c1cc(-c2ccccc2)nc2ccccc12
  -1%	i
Cc1ccc2nc(SCc3nc4ccccc4c(=O)[nH]3)[nH]c2c1
  -13%	-26%
CCOC(=O)/C(C#N)=C1/C=CN(C)C(C)=N1
  -10%	i
COc1cccc(C(=O)N(C)CC(=O)Nc2ccc(F)c(F)c2F)c1
  -18%	-1%
COc1cccc(CNC(=O)C2=Cc3cccc(OC)c3OC2)c1
  -18%	i
Cc1csc(NC(=S)NC(=O)c2ccccc2)n1
  -1%	0%
CCCCCOCC(O)CCC(=O)NN (centres undefined)
  u	x
CCOC(=O)C1CCN(C(=O)c2cccnc2Oc2ccccc2)CC1
  -14%	i
O=C1NC(=O)c2cc(Nc3ccccc3)c(Nc3ccccc3)cc21
  u	u
Cc1ccc(N2C(=O)N(C(C)C)C(C)(C)CC2(C)O)cc1 (centres undefined)
  -7%	-18%

Quoted at random: two entries already listed.
Values run as follows: Vaccinia Venus	Vaccinia mCherry
O=C1NC(=O)c2cc(Nc3ccccc3)c(Nc3ccccc3)cc21
  u	u
Cc1ccc2nc(SCc3nc4ccccc4c(=O)[nH]3)[nH]c2c1
  -13%	-26%

(next part)
Values run as follows: Vaccinia Venus	Vaccinia mCherry
CC(C)CN(CCNC(=O)c1cc(-c2cccs2)nc2ccccc12)CC(C)C
  -11%	-15%
Cc1nc(NC(=O)/C=C/c2ccco2)sc1C
  -26%	u
CCOC(=O)c1cc(-c2ccccc2)n[nH]1
  -15%	i
Cc1cc(C)cc(N2C(=O)C=CC2=O)c1
  -8%	i
Brc1ccccc1/C=N/Nc1nc2ccccc2o1
  7%	u
C[C@@H]1CN(C(=O)c2nc3ccc(Cl)cn3c2CNCC[C@@H]2C[C@@H]3C=C[C@H]2C3)C[C@H](C)O1
  -13%	-5%
CCOC(=O)Cn1nc(/C=C/c2ccc(OC)cc2)ccc1=O
  0%	0%
CCOC(=O)C1CCN(C(=O)C2(NC(=O)NC3CCCCC3)CCCCC2)CC1
  3%	-13%
O=C(CCc1c[nH]c2ccccc12)NC1CC1
  -9%	-21%
COc1ccc(C(=O)NNC(=O)C(Cc2ccc(O)cc2)NC(=O)c2ccccc2NC(=O)c2ccc(OC)cc2)cc1 (centres undefined)
  -19%	-20%
COCCN(Cc1cc2ccccc2[nH]c1=O)C(=O)c1ccccc1OC
  -9%	-14%
CCOC(=O)c1cc2c(s1)-c1ccccc1CC2
  -8%	x
CC(C)c1ccc(CN2CCC3(CCC(CNC(=O)c4ccn(C)n4)O3)CC2)cc1 (centres undefined)
  -14%	-21%
C/C=C(/C)C(=O)O[C@@H]1c2c(ccc3ccc(=O)oc23)O[C@@H]1C(C)(C)OC(=O)/C(C)=C\C
  u	u
CCOC(=O)c1ccc2c(c1)N(CC(=O)Nc1cc(F)ccc1F)C(=O)c1ccccc1S2
  11%	3%
CC(C)OCCCNC(=O)c1cc(S(=O)(=O)N2CCCCC2)c[nH]1
  -18%	-4%
CCn1c(CNC(=O)COC)nc2ccccc21
  -3%	i
CCc1c(C)sc2c1CCN(Cc1cccc(OC)c1)C2c1ccccc1 (centres undefined)
  -5%	-26%
COc1cccc(NC(=O)CN2CCN(C(=O)c3ccco3)CC2)c1
  -8%	-12%
COc1cc(OC)cc(C(=O)NCCc2csc(-c3cccc(C)c3)n2)c1
  -8%[7.34 µM]	i[7.34 µM]
CCN1C[C@@H]2[C@@H]3C(=O)N(C)C(=O)[C@@H]3[C@](Cc3ccccc3)(C1=O)N2C(=O)c1ccc(F)cc1
  -6%	i
CC(C)=CCC/C(C)=C/C(N)=O
  -7%	-15%
Cc1cc(C)c(C(N)=O)c(Nc2ccc3c(c2)OCCO3)n1
  -25%	x
CCCCCCCCC(c1nc2ccccc2[nH]1)N1CCN=C1c1cc2ccccc2[nH]1 (centres undefined)
  u	u
CCOC(=O)c1c(C)oc2nc(C)nc(NCCCN3CCN(c4ccc(F)cc4)CC3)c12
  -14%	i
O=C(CN1C(=O)NC2(CCCCCC2)C1=O)NCc1cccs1
  -16%	-1%
CCn1c(=O)n(CC)c2cc(N3CCCCC3)c(NC(=O)Nc3ccccc3Cl)cc21
  -16%	-7%
O=C(CNC(=O)c1ccco1)OCc1ccccc1F
  0%	i
Cc1ccc(F)cc1NC(=O)CCc1c(C)nn(-c2ccc(N3CCOCC3)nn2)c1C
  -4%	-6%
C[C@H](CO)N1C[C@H](C)[C@@H](CN(C)Cc2ccccn2)Oc2ncc(-c3ccccc3)cc2C1=O
  -13%	u
Cc1ccc(C(=O)c2cn(Cc3ccc(Cl)cc3)c3nc(C)ccc3c2=O)cc1
  -15%	-23%
CCOc1ccc(-c2nnc(SCC(=O)Nc3ccc(C)cc3C)o2)cc1
  -5%	-13%
NC(=S)N/N=C1\CC(n2nnn(-c3cccc(Cl)c3)c2=S)C2COC1O2 (centres undefined)
  u	11µM*
O=[N+]([O-])c1ccccc1CNCCc1ccc(F)cc1
  -10%	-22%
O=C(C1=C[C@H](c2csc3ccccc23)C[C@H](OCCCCO)O1)N1CCN(Cc2ccc3c(c2)OCO3)CC1
  u	u
O=C(NCC(c1ccccc1Cl)N1CCCC1)c1ccc(N2CCCC2=O)cc1 (centres undefined)
  -12%	-19%
S=C(Nc1cccnc1)NC1CC2CCC1C2 (centres undefined)
  -3%	-14%
COCCCn1nnnc1SCC(=O)N1CCCC1
  -7%	-14%
COc1cc(OC)cc(C(=O)OCC(=O)Nc2ccc3[nH]c(=O)[nH]c3c2)c1
  1%	-15%
COCCCN1C(=O)N(c2ccccc2)C(=O)C1CC(=O)Nc1ccc(F)cc1 (centres undefined)
  1%	-6%
Cc1ccc(COC[C@H](CC(C)C)N2CCN(C(=O)c3cccc(C(F)(F)F)c3)CCC2=O)cc1
  -11%	-16%
COc1cccc(NC(=O)CSc2ncc(S(=O)(=O)c3ccc(C)c(C)c3)c(=O)[nH]2)c1
  5%	8%
COc1cc2ccccc2cc1C(=O)NC(=S)Nc1cccc(C(=O)O)c1
  -5%	u
CCO[C@H]1OC(C(=O)Nc2ccccc2)=C[C@@H](c2coc3ccccc3c2=O)[C@@H]1CCCO
  -10%	-1%
CCCCNc1nc2c(c(=O)n(Cc3ccccc3)c(=O)n2C)n1C
  -7%	-19%
C/C(=N\NC(=O)c1cccc(F)c1)c1cccc(NC(=O)c2ccc(F)cc2)c1
  -16%	-8%
COc1cc(NC(=O)C2CCN(c3cnccn3)CC2)cc(OC)c1
  3%&-1%	38%&-9%[activator]
COc1ccc(CCNC(=O)c2ccc(CNS(=O)(=O)c3cc(C)ccc3C)cc2)cc1OC
  u	x
CN(C)S(=O)(=O)c1cccc(NC(=O)c2cccc(NS(=O)(=O)c3ccccc3)c2)c1
  -17%	-22%
O=C(Cn1cc([N+](=O)[O-])ccc1=O)NCC(=O)Nc1ccc(F)c(F)c1F
  -2%	i
NCCc1c(C(=O)O)[nH]c2ccc([N+](=O)[O-])cc12
  1%	-8%
Cc1cccc2cc(C#N)c(SCC(=O)NCc3cccs3)nc12
  1%	i
Oc1ccc(Cl)c(Cl)c1
  -13%	i
O=C(c1ccc2c(c1)N(Cc1ccc(F)cc1)C(=O)c1ccccc1S2(=O)=O)N1CCCCCC1
  -15%	-14%
O=C(NCCNC(=O)c1cc(Cl)ccc1Cl)c1cnccn1
  -9%	-13%
O=C(NC1CCCCC1)N1CCN(S(=O)(=O)c2ccc(F)cc2)CC1
  5%	-7%
Cc1ccc(C(=O)N(C)c2nnc(-c3ccncc3)s2)cc1
  7%	7%
CCOC(=O)c1ccc(NC(=O)C(C)N(c2ccc(OCC)cc2)S(C)(=O)=O)cc1 (centres undefined)
  -8%	-6%
CN(CCNC(=O)c1c[nH]c2c1ccc1ccccc12)CCNC(=O)c1c[nH]c2c1ccc1ccccc12
  -23%	u
O=C1c2cccc3cccc(c23)N1CN1CCN(c2ccccn2)CC1
  -19%	x

Whole records as entered above. Screens in order: Vaccinia Venus, Vaccinia mCherry
`CC(C)CN(CCNC(=O)c1cc(-c2cccs2)nc2ccccc12)CC(C)C` reads -11%, -15%
`CCCCCOCC(O)CCC(=O)NN` (centres undefined) reads u, x
`COc1cccc(CNC(=O)C2=Cc3cccc(OC)c3OC2)c1` reads -18%, i
`COCCCN1C(=O)N(c2ccccc2)C(=O)C1CC(=O)Nc1ccc(F)cc1` (centres undefined) reads 1%, -6%
`CCOC(=O)c1cc2c(s1)-c1ccccc1CC2` reads -8%, x

(further entries)
Values run as follows: Vaccinia Venus	Vaccinia mCherry
O=C(CN(c1cccc([N+](=O)[O-])c1)S(=O)(=O)c1ccccc1)NCc1ccccc1
  -4%	i
O=C1N(Cc2cccc(Cl)c2)C[C@@H]2C[C@@H](c3ccco3)N3CCC[C@@]123
  -5%	-1%
CC(=O)Nc1cc(C(=O)N2CCCC2)ccc1Sc1ccc(C)cc1
  -22%	-24%
COc1ccc(NC(=O)COC(=O)Cc2ccsc2)c(OC)c1
  -10%	-22%
COc1ccc(Oc2nc(OC)cc(OC)n2)cc1
  1%	-5%
Cc1ccccc1C(=O)NC1CCN(C(=O)N2CCOCC2)CC1
  2%	x
COc1ccccc1C(=O)N[C@@H]1c2ccccc2C2(CCN(Cc3nccs3)CC2)[C@H]1OC
  -6%	-21%
Cc1ccc2c(c1)COc1c3ccc(C(=O)NC(C)C)cc3nn1-2
  u	-2%
COC(=O)c1[nH]c2ccc(F)cc2c1NS(=O)(=O)c1ccc(OC)cc1OC
  -8%	i
CCCC1(c2ccccc2)NC(=O)N(CC(=O)Nc2cc(S(=O)(=O)N3CCOCC3)ccc2Cl)C1=O (centres undefined)
  -3%	i
COC(=O)c1c(NC(=O)/C=C/c2ccco2)sc2c1CCC2
  -12%	-16%
COC(=O)c1ccc(C)c(NC(=O)CCSc2ccc(C)cc2)c1
  -12%	-10%
Cc1ccc(C)n1NC(=O)c1cccc(Cl)c1
  -7%	-22%
Cc1ccc(/C([O-])=C(/C(=S)NCc2ccccc2)[n+]2ccccc2)cc1[N+](=O)[O-]
  -4%	-35%
Cc1ccc(NC(=O)Cn2c(=O)ccc3cc(S(=O)(=O)N4CCCC4)ccc32)cc1C
  -4%	4%
COCCCN1C(=O)C(CC(=O)NCC2CCCCC2)CC(C(=O)N(C(C)C)C(C)C)=C1C (centres undefined)
  -2%	8%
CC(C)(C)C(=O)CN1C(=O)NC2(CCCc3ccccc32)C1=O (centres undefined)
  0%	i
COc1ccc(CCNC(=O)C(=O)NCCC2CCCCN2S(=O)(=O)c2cccs2)cc1 (centres undefined)
  -22%	u
COc1cc(O)c(C)c(O)c1
  0%	15%
CC1(C(=O)NS(=O)(=O)c2ccccc2C(F)(F)F)CCN1C(=O)CCc1cccs1 (centres undefined)
  12%	42%[activator]
Cc1ccc(NC(=O)Cn2c(=O)nc(-c3ccccc3)c3ccccc32)cc1F
  -3%	-9%
Cc1cccc(-n2c(N)c(C(=O)NCCN3CCOCC3)c3nc4ccccc4nc32)c1
  -28%	x
COc1ccc(NC(=O)COC(=O)c2ccc(OCc3ccccc3Cl)c(OC)c2)c(OC)c1
  -9%	-14%
O=S(=O)(c1cccc2cccnc12)N1CCN(Cc2ccc3c(c2)OCO3)CC1
  10%	7%
O=C1c2cccc3cccc(c23)C(=O)N1Cc1ccccn1
  3%	i
Cc1ccc(NC(=O)c2sc(Cl)nc2-c2ccccc2)cc1
  -12%	x
COCCn1c(=NC(=O)CN2C(=O)CCC2=O)sc2cc(S(N)(=O)=O)ccc21
  0%	-7%
CCN(/C=N/c1sc2c(c1C#N)CCCCC2)CC
  u	x
COc1ccc(Cl)cc1N(CC(=O)N/N=C/c1ccc(OCC(N)=O)cc1)S(C)(=O)=O
  3%	-1%
CCOC(=O)Cn1ccc(NC(=O)COc2ccc(F)cc2)n1
  -9%	-8%
CCCn1c(SCC(=O)Nc2nnc(CC)s2)nnc1-c1ccncc1
  -10%	-14%
CCCOc1cccc(C(=O)Nc2cc(-c3ccccc3)no2)c1
  -19%	-18%
NC(=O)Cc1nc2scc(-c3ccccc3)c2c(=O)[nH]1
  7%	i
CN(Cc1ccccc1)C(=C(Cl)Cl)/C(=C1/NCCN1C)[N+](=O)[O-]
  -30%	u
